Source: PubChem
Beta cell apopt = beta cell apoptosis inhibition; INS-1E cytokine-induced death, ATP luminescence, 48 h; percent of positive-control rescue, neutral wells zero; AID 435005; protection from apoptosis, % (test concentration not listed); 300,000 tested, 0.8% active;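 active = all replicates at 75% or more, or half of them and the mean; inconclusive = half reach 75% but not the mean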;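 also: 0% = cytokine-treated negative control wells and 100% = positive control rescue; higher means more ATP so stronger rescue from cytokine killing; wells of about 40 µL received 100 nL stock; the first replicate is given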
UCH37 DUB inh = human UCH37 deubiquitinating enzyme inhibition; Q9Y5K5; purified proteasome/UCH37, Ub-AMC cleavage fluorescence; inhibition, % (no concentration beside the values); 330,000 tested, 0.33% active; AID 588478;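 active = mean of two replicates above 20%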;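 also: 0% = compound-free wells with enzyme and 100% = wells lacking proteasome; stock transfer was 100 nL into about 20 µL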
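system = Proteasome-associated human UCH37 deubiquitinase | amount = 0.15 nM proteasome as dispensed | medium = pH 7.4 Tris-HCl (50 mM) with ovalbumin, ATP-MgCl2, DTT | incubation = 30 min preincubation with enzyme, 25 min cleavage at room temperature | detection = AMC fluorescence 355/460 nm | read-out basis = percent inhibition | controls = no-proteasome and no-compound wells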
B2AR ag = activates human beta-2 adrenergic receptor causing internalization; 340,000 tested, 0.43% active; response, % (no concentration beside the values); Am2.2-beta2AR cells, FAP receptor internalization, flow cytometry; reference of the scale not given here; AID 504454;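 active = response above a set limit, near 3 SD of response in nonfluorescent compounds, cut at about 42% in these data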;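 also: stock transfer was 100 nL into about 11 µL; a reference agonist was the positive control; negative values mostly stem from fluorescent compounds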
Calb FLC = C. albicans growth modulation with fluconazole; C. albicans CaCi-2 (fluconazole-resistant clinical isolate) + fluconazole, Alamar Blue growth, 48 h; 300,000 tested, 0.57% active; growth inhibition, % (concentration not given with the values);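 active = most replicates above 75%; inconclusive = exactly half above 75%; inactive = most below 75%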;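 also: all wells also contain fluconazole at 8 µg/ml as a sub-toxic cotreatment; 0% = median of DMSO wells and 100% = median of geldanamycin control wells; wells of about 8 µL received 7.5 nL stock; the first replicate is given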
RanGTP-Impb inh = disruptors of Ran-importin-beta complex formation – biochemical, FRET, CFP-Ran, YFP-importin-beta, homogeneous, primary screen; cell-free CFP-Ran/YFP-importin-beta FRET ratio; inhibition, % (test concentration not listed); 300,000 tested, 1.1% active; AID 2216;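 active = most replicates above 15%; inconclusive = exactly half above 15%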;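 also: 0% = DMSO wells and 100% = Ran loaded with GDP instead of GTP; wells of about 40 µL received 100 nL stock; the first replicate is given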
LANA-H2A inh = blocks KSHV LANA binding to histone H2A/H2B; 320,000 tested, 0.6% active; cell-free LANA-H2A/H2B peptide, fluorescence polarization; inhibition, % (test concentration not listed); AID 2629; in the data active = inhibition mostly above about 10%, no sharp cut-off; inactive = mostly below about 6.7%;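 also: stock transfer was 7.5 nL into about 10 µL; 0% = median of vehicle wells and 100% = median of positive control wells; one replicate is shown; the record names a cut of 25% in any replicate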
Target sequence (Q9QR71 whole entry, looked up): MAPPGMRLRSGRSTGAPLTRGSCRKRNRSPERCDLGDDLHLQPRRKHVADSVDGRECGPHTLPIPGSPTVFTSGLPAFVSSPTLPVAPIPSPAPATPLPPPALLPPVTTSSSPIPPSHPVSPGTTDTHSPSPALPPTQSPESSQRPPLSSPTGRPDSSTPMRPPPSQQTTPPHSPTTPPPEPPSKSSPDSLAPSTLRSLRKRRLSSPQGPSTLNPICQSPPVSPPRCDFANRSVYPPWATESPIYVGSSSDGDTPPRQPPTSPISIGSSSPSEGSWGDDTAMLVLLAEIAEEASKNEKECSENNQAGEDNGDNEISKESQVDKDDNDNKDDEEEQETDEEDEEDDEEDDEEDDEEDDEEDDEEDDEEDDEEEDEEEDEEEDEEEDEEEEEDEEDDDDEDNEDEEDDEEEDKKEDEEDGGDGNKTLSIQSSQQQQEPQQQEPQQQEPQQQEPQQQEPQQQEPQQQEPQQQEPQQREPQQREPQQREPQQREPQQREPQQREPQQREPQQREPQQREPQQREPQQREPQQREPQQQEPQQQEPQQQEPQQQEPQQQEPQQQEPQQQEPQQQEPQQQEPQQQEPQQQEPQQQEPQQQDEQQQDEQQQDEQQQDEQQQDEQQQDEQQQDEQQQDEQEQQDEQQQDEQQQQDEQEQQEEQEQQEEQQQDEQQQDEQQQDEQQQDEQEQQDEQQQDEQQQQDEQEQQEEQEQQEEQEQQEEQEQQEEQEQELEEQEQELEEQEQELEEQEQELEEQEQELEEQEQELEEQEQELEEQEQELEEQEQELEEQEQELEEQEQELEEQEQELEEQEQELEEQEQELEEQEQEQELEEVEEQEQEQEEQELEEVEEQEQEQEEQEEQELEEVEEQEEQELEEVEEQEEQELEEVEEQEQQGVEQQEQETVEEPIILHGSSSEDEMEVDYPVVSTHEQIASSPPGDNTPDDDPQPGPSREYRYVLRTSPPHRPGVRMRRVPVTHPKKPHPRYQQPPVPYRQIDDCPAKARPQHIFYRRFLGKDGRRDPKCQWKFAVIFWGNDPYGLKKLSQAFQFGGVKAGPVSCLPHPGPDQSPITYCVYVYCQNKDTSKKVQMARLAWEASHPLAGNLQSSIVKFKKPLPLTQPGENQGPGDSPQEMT
T cruzi repl = blocks replication of Trypanosoma cruzi; T. cruzi beta-gal in NIH3T3, luminescence, 90 h; inhibition, % (test concentration not listed); 300,000 tested, 1.4% active; AID 1885;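 active = mean inhibition across valid replicates above about 55%, limit read from the data; inconclusive = mean below that limit but half or more replicates reach it; inactive = mean below it, under half of replicates reach it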;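 also: signal also drops with host cell toxicity which is not excluded here; 0% = plate median of DMSO wells and 100% = zero luminescence signal; higher percent means less beta-gal luminescence so fewer parasites; stock transfer was 50 nL into about 50 µL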
Bfl-1 A1 inh = inhibitors of the anti-apoptotic protein A1, read as caspase activation | MEF A1-2A-BIM cells, Caspase-Glo 3/7 luminescence, 3 h; percent of clofoctol response, vehicle zero | caspase activation, % (concentration not given with the values) | 330,000 tested, 0.066% active;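 active = over half of replicate activation scores above 10%, or exactly half above 10 with the replicate mean above 10; inconclusive = replicate mean below 10 yet half the replicates above 10; inactive = over half of replicates below 10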;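 also: wells of about 30 µL received 50 nL stock; many hits fall short of the cut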
Numbers without * were called inactive; i = inactive; ? = inconclusive; / = not tested or not shown.

compound	Beta cell apopt	UCH37 DUB inh	B2AR ag	Calb FLC	RanGTP-Impb inh	LANA-H2A inh	T cruzi repl	Bfl-1 A1 inh
COc1cc(C(=O)NCCC(=O)N2CCN(C)CC2)cc(OC)c1OC	-6	6.0	7	-5	0.3	/	-12	-0.3
CN(CC1CCOCC1)C(=O)CC1C(=O)NCCN1CC1CCCCC1 (stereo unspecified)	/	-14	-5	?	0.8	1.8	-19	0.3
Cc1ccc(/C=C/c2ccc(=O)n(Cc3ccc(F)cc3)n2)cc1	-3	-73	-1	0	-0.3	4.7	-5	-0.6
COc1cc2nc(CSc3ncn[nH]3)[nH]c(=O)c2cc1OC	/	2.2	3	12	-3.7	1.8	5	0.8
COc1ccc(NC(=O)CSC2=C(C#N)C(c3ccco3)C(C(=O)Nc3nc4ccccc4s3)=C(C)N2)cc1 (stereo unspecified)	8	-21	-21	1	5.4	3.9	52	0.0
COc1ccc(NC(=O)Cn2c(-c3ccccc3)cc(C(C)=O)c2C)c(OC)c1	12	3.9	11	?	-5.6	0.7	-6	0.3
CCOC(=O)c1sc(NC(=O)CSC(=S)N2CCN(C)CC2)nc1C	-7	2.1	-1	1	3.1	0.2	2	-0.1
O=C(NCCN1CCOCC1)c1cc2ccccc2[nH]1	-3	2.1	6	-7	-0.4	1.2	-15	0.9
Cc1ccc(Cl)cc1N1CCN(C(=O)CCS(=O)(=O)c2cccc3nonc23)CC1	9	0.4	-8	8	0.4	1.1	2	-0.3
CCCCc1ccc(S(=O)(=O)NCCCN2CCCC2=O)cc1	0	1.3	-10	/	/	-0.5	-2	0.4
O=C(NCc1nnc(SCC(=O)N2CCOCC2)o1)c1ccccc1F	-7	1.0	2	-3	0.8	-8.3	-21	0.6
COC(=O)c1c(NC(=O)C2C3C=CC(CC3)C2C(=O)O)sc(C)c1C (stereo unspecified)	/	0.8	3	10	1.7	1.1	-9	-0.8
Nc1nc(N)nc(Cc2ccccc2O)n1	-8	2.3	-8	/	/	2.1	/	-0.4
Cc1nc2ccccc2c(=O)n1NC(=O)c1ccc([N+](=O)[O-])cc1Cl	-5	3.0	1	-12	8.3	0.6	2	0.7
O=C(CSc1nc(C2CCCCC2)n(-c2ccccc2)n1)NCC(F)(F)F	-6	1.8	-30	-13	-2.7	1.8	8	-0.7
CCCCn1c(=O)[nH]c(=O)c2c1nc(-c1cc(Cl)c(OC)c(OC)c1)n2C	0	-96	-2	8	-0.1	-6.4	8	0.5
O=C(CN1CCOCC1)Nc1ccccc1Sc1ccc(Cl)cc1	-3	3.0	1	23	6.4	0.5	3	-0.1
CC(C)NC(=O)CC1Nc2c3ccccc3nc(=S)n2C1=O (stereo unspecified)	-8	-2.3	0	-18	7.0	-2.0	-5	-1.4
O=C(CN1C(=O)NC2(CCCCC2)C1=O)Oc1ccc2ccc(=O)oc2c1	-9	i	-2	/	/	-3.9	/	-0.2
Cc1cc(C)cc(N2CCCn3c2nc2c3c(=O)n(CCN3CCOCC3)c(=O)n2C)c1	1	3.2	8	-5	-1.4	-1.3	-11	0.6
CC(C)[C@H](NC(=O)c1ccc(Cl)cc1)C(=O)OCC(=O)N1CCN(c2ccccc2)CC1	-1	0.0	-6	/	/	3.2	/	0.6
O=C(Nc1ccc(Cl)c(Cl)c1)N1CCC(N2CCCCC2)CC1	-2	-3.1	3	4	-0.9	2.0	10	0.2
CCOC(=O)c1cnc(SCC(=O)NCc2ccco2)nc1N	-1	0.9	-4	-11	-4.2	-0.6	-1	-1.6
O=C(CNC(=O)c1ccccc1F)NCC(c1cccs1)N1CCOCC1 (stereo unspecified)	2	3.0	-7	/	/	0.6	/	1.2
CCOc1ccc(Br)cc1CSC(=N)N	38	1.5	4	-14	2.1	2.4	-35	0.5
CCCCC(OC(=O)c1cc2occc2n1C)C(=O)NCC1CCCO1 (stereo unspecified)	-2	4.4	-7	3	-1.0	-4.1	-4	0.0
COc1cc2nc(NC(=O)c3ccc(Cl)cc3)[nH]c(=O)c2cc1OC	8	4.7	-7	5	4.5	7.1	-12	0.5
O=C(N/N=C/c1cn(CCOc2ccccc2)c2ccccc12)c1ccncc1	4	/	19	-3	1.3	-5.1	1	0.0
Cc1cc(C)cc(N(C(=O)c2cc3ccccc3oc2=O)C2C=CS(=O)(=O)C2)c1 (stereo unspecified)	-2	2.0	-7	-7	5.6	-1.7	-8	1.0
NNc1nc2sc3c(c2c(=O)n1Cc1ccccc1)CCC3	-4	5.0	-3	23	-3.9	5.2	1	1.2
CCC1(c2ccc(Cl)cc2)NC(=O)N(CC(=O)NC2(C#N)CCCCC2)C1=O (stereo unspecified)	1	-1.4	6	/	/	-0.5	/	-0.3
CCOc1ccc(S(=O)(=O)NCc2ccccn2)c(C)c1C	/	2.8	-1	16	-0.8	2.5	0	0.4
Cc1ccc(-c2ccc(CCC(=O)O)n2-c2cccc(O)c2)cc1	3	-14	4	12	-5.3	2.7	-19	-0.5
COC(=O)C1=C(C)NC(C)=C(C(=O)OCC(C)C)C1c1ccccc1[N+](=O)[O-] (stereo unspecified)	7	4.6	19	/	5.5	1.1	2	-0.5
CC(C)CNC1CS(=O)(=O)CC1O (stereo unspecified)	-11	1.4	6	0	7.2	-1.5	27	0.3
O=C(NCC1CCCO1)c1ccc(NS(=O)(=O)c2cccs2)cc1 (stereo unspecified)	2	1.5	-8	9	12	-1.2	-1	0.1
COc1ccc(NC(=O)CSc2nnc(COc3ccccc3)n2Cc2ccco2)cc1OC	0	0.9	2	0	2.6	0.7	9	-0.5
CCCCNC(=O)c1onc(CSc2ccccc2)c1C(=O)NCCCC	8	2.4	2	3	-5.6	-0.1	11	0.2
CC(C)COc1ccc(C(=O)CCN2CCCCC2)cc1	-15	-2.5	-8	1	-5.2	0.9	-6	-0.3
Cc1nc(C2COc3ccccc3O2)sc1C(=O)O (stereo unspecified)	-7	2.0	11	5	5.7	1.0	-13	-7.1
Cc1cccc(C(=O)O)c1NC(=O)Cc1cccc2ccccc12	-2	2.1	7	7	-4.7	0.6	-11	0.2
CCCCn1c(NCCC)nc2c1c(=O)[nH]c(=O)n2C	/	0.0	5	-7	?	/	1	/
CCOc1ccccc1CNC(=O)CCNC(=O)Cn1ccc2ccccc2c1=O	-2	-1.3	-3	-13	-2.3	6.3	3	0.1
CCOc1ccc(CCNC(=O)c2nnn(CC(=O)Nc3c(C)cc(C)cc3C)c2N)cc1OCC	/	0.8	4	-10	2.2	3.1	-1	0.8
CSc1ccccc1NC(=O)Cc1ccc(Br)cc1	-10	4.7	2	-13	7.5	-0.4	22	-0.2
COCCNC(=O)C(=O)NCC1OCCN1S(=O)(=O)c1cccs1 (stereo unspecified)	4	1.2	-2	7	?	2.2	-2	-0.9
CCC(C)N1CC23C=CC(O2)C(C(=O)OC)C3C1=O (stereo unspecified)	-7	-0.8	9	-8	?	-3.1	-6	0.7
CC(=O)N1c2ccc(S(=O)(=O)NCC3CCC(C(=O)N4CCCC(C)C4)CC3)cc2CC1C (stereo unspecified)	7	1.1	-6	2	-0.5	2.0	4	-0.6
CCc1ccccc1OCCOc1ccc(C)cc1OC	4	5.4	-6	0	-0.3	-4.5	20	0.5
Cc1ccnc(NC(=S)NC(=O)c2ccco2)c1	-9	6.5	-14	15	6.1	/	-16	-0.2
CCCn1nnc(NC(=S)NC(=O)c2ccc(-c3ccc(Br)cc3)o2)n1	3	6.3	7	-8	-2.3	2.7	3	-0.7
O=C(Nc1ccc(F)cc1)c1cccc(N2C(=O)C3C4CCC(C4)C3C2=O)c1 (stereo unspecified)	-2	1.3	-2	-1	-1.3	-5.2	5	-0.5
COc1ccccc1CNC(=O)CSc1nc2ccccc2c(=O)n1CCCN1CCOCC1	4	4.6	7	-2	-1.6	-1.9	16	0.5
CC(=O)OCC1(C)CN(c2ccccc2)NC1=O (stereo unspecified)	-32	5.2	-2	-5	-1.5	6.5	7	0.1
CCn1cc(S(=O)(=O)CC(=O)Nc2ccc3c(c2)OCCO3)c2ccccc21	0	2.0	2	/	/	0.8	/	-1.4
O=C(NC(Cc1ccccc1)C(=O)N1CCCCCC1)c1ccccc1 (stereo unspecified)	-2	8.4	-3	11	-2.6	12	5	?
O=C(NC(=S)NCc1ccccc1)c1ccc2c(c1)OCO2	4	3.0	-9	-9	-1.1	-24	-1	0.5
Cc1cc(N/N=C/c2ccc(F)cc2)nc(-n2nc(C)cc2C)n1	110*	/	0	-13	5.9	-2.9	?	0.2
Cc1cc(NS(=O)(=O)c2ccc(NC(=O)COc3ccc(Cl)cc3)cc2)no1	-4	1.7	-2	3	-1.9	2.9	4	-0.7
O=C(CN(C1CCCCC1)S(=O)(=O)c1ccc(Cl)cc1)NCCCO	-1	0.0	-5	-3	-4.6	2.8	-4	1.5

The list continues.
compound	Beta cell apopt	UCH37 DUB inh	B2AR ag	Calb FLC	RanGTP-Impb inh	LANA-H2A inh	T cruzi repl	Bfl-1 A1 inh
COc1ccc(NC(=O)CN2C(=O)NC3(CCCC3)C2=O)cc1	-7	-1.4	-19	-2	2.5	9.9	-7	0.8
Cc1c(NC2=C(Cl)C(=O)N(c3ccccc3)C2=O)c(=O)n(-c2ccccc2)n1C	2	7.8	-1	-2	-0.1	5.7	-18	-0.2
CCCc1nn2c(=O)cc(COc3cccc(NC(=O)c4ccco4)c3)nc2s1	5	-1.3	-4	-7	-4.1	-4.1	-7	-1.0
CCCCC(=O)Oc1cc(C)[nH]c(=O)c1[N+](=O)[O-]	-4	2.6	2	1	?	-0.1	-14	0.2
O=C(Nc1cccc([N+](=O)[O-])c1)Nc1ccc2c(c1)OCCO2	5	6.0	6	-9	2.3	1.9	16	-0.4
O=C(CSc1nnc(-c2ccc(OC(F)F)cc2)o1)NC(=O)NCc1ccco1	-11	0.8	-5	0	0.3	-3.2	-5	-0.2
COc1ccccc1C(=O)CN1C(=O)NC2(CCc3ccccc32)C1=O (stereo unspecified)	-3	-0.8	-2	6	0.5	/	-6	0.0
CC1CCN(C(=O)Cn2ncc3c([nH]c4ccccc43)c2=O)CC1	/	-0.5	-5	-12	1.5	1.9	0	1.0
COC(C)(C)[C@]12CC(O)(C(C)C)ON1[C@H]1CCCCC1N2O (stereo partly specified)	-2	-1.5	-2	1	1.8	-5.5	-11	-0.1
Cc1ccc(CN2C(=O)c3ccccc3C2C(=O)NCC2CCCO2)cc1 (stereo unspecified)	1	-0.2	5	-31	2.5	-9.8	-13	-0.4
O=C(NCc1cccnc1)C1CC(c2cccc(Br)c2)=NO1 (stereo unspecified)	/	0.3	-15	-2	-4.1	0.0	-7	1.3
O=C1CC(c2ccccc2)n2ncnc2N1 (stereo unspecified)	0	2.2	-3	-2	-0.4	-0.3	-14	-0.1
CCCCNC(=S)N/N=C/c1ccccc1F	-2	/	-2	-25	2.3	-0.4	-7	-0.8
